Bioassay records from PubChem.
VACV Venus inh = vaccinia inhibition (Venus reporter); Vaccinia virus Venus reporter expression, fluorescence; Potency, µM (highest dose often 36.5 µM), for the others: at the highest dose activity change, negative = inhibition, usual class: inhibitors; hit rate 0.46% among 330,000; AID 720580; active means well fitted inhibition curve with a large enough effect; inconclusive means small, poorly fitted or top-dose-only effect; inactive means no such curve, though single readings can be large or run the other way; tested in A549 cells; also: nearly all actives have a fitted effect of over 30% in size; inactives centre near -10
Vaccinia mCherry = inhibitors of vaccinia virus infection (mCherry reporter signal); hit rate 0.63% among 310,000; Potency, µM (highest dose often 36.5 µM), without a hit: at the highest dose activity change, negative = inhibition, most hits filed as inhibitors; AID 720579; Vaccinia virus mCherry reporter infection, fluorescence; about a quarter of the inactives have no number; active = well fitted inhibition curve with a large enough effect; inconclusive = small, poorly fitted or top-dose-only effect; inactive = no such curve, though single readings can be large or run the other way; tested in A549 cells; also: nearly all actives have a fitted effect of over 35% in size; inactives centre near -10
Active calls of the source: *; i = inactive; ? = inconclusive; / = no result given; & = joins results of further samples; [ ] = another dose, or the depositor's remark. % is scaled to controls: 0 for no effect and ±100 for the full control effect; potency is read from the fitted curve at half-maximal effect. Not a hit list. About 0.82% of those tested had a hit in this group.

Compound | VACV Venus inh | Vaccinia mCherry
CC/C(=N\Nc1ccccc1)c1c(O)n(-c2ccc(OC)cc2)c(=O)[nH]c1=O | -12% | ?
Cc1oc(-c2ccccc2F)nc1CS(=O)(=O)CC(=O)N1CCN(Cc2ccccc2)CC1 | -19% | -13%
CC1CC(C)(C)NC(=S)N1CCCC(=O)N1CCN(c2ccccc2F)CC1 (centres undefined) | -11% | -18%
O=C(Nc1cccc(Cl)c1)C1C2C=CC3(O2)C1C(=O)N(CCCN1CCCCC1)C3C(=O)NC1CCCCC1 (centres undefined) | 3% | -23%
CCN(c1ccccc1C(=O)O)S(=O)(=O)c1cccc2nsnc12 | -20% | i
O=C(Nc1nnc([C@@H]2C[C@H](O)[C@@H](CO)O2)s1)Nc1cccc(Cl)c1Cl | 1% | -11%
CCOC(=O)c1c(C)[nH]c(C(=O)OCC(=O)NC2CCS(=O)(=O)C2)c1C (centres undefined) | -16% | -7%[1.46 µM]
COC(=O)c1sc2ccccc2c1-n1cccc1C(=O)C(=O)Nc1ccc(OC)cc1 | ? | /
CSc1ccccc1NC(=O)COC(=O)/C=C/c1ccco1 | -4% | -9%
COc1ccc(-c2nnc(SCc3cccc(C#N)c3)o2)cc1 | -5% | i

Further results:
Compound | VACV Venus inh | Vaccinia mCherry
CCOc1ccc(S(=O)(=O)N2CCOCC2)cc1NS(=O)(=O)c1ccc(OC)c([N+](=O)[O-])c1 | 2% | -15%
CCOC(=O)N1CCN(S(=O)(=O)CCNC(=O)c2cccc(OC)c2)CC1 | -16% | -11%
Cc1ccc(S(=O)(=O)N/N=C/c2cccc3c2OCCO3)cc1 | -8% | -16%
Cc1noc(C)c1-c1ccc2ncnc(NCc3ccccc3)c2c1 | 16% | 9%
CC(C)NC(=O)Nc1ccc2c(c1)C(=O)N([C@@H](C)CO)C[C@@H](C)[C@H](CN(C)Cc1ccccc1)OCCCC[C@H](C)O2 | -11% | -8%
CN1CCN(CC(=O)Nc2ccccc2Sc2ccccc2)CC1 | -8% | -14%
Cc1ccc(S(=O)(=O)N2CCCCC2)cc1C(=O)N1CCCCCC1 | -13% | -3%
CCNC(=S)N1CCN(c2ccc([N+](=O)[O-])cc2)CC1 | -4% | i
Cc1ccc(C(=O)NCC(=O)OCC(=O)c2ccc3c(c2)NC(=O)CO3)cc1C | -6% | 2%
CCN(CC)c1nc2ccccc2nc1C(=O)Nc1cc(OC)c(OC)c(OC)c1 | -10% | -12%

Next section
Compound | VACV Venus inh | Vaccinia mCherry
NS(=O)(=O)c1ccc(NCCCn2ccnc2)c([N+](=O)[O-])c1 | -20% | -7%
Fc1ccc(-c2nnc(-c3ccc(Cl)cc3Cl)o2)cc1 | ? | i
CCc1nnc(NC(=O)CSc2nc3c(cc2C#N)CCCC3)s1 | -8% | i
CCc1c(C)nc(SCCOc2ccc(OC)cc2)[nH]c1=O | -12% | -5%
CC(C)N1C(=O)NC(=O)C2(Cc3cc([N+](=O)[O-])ccc3N(C)C2c2ccccc2)C1=O (centres undefined) | -28% | -8%
COC(=O)[C@H]1[C@H]2C[C@H]3c4[nH]c5ccccc5c4CCN3C[C@@H]2CC[C@@H]1O | -4%&-11% | i
Cc1cc(S(=O)(=O)NCCC2=CCCCC2)ccc1Br | -17% | -16%
Cn1c(=O)c2c(nc(NCCO)n2C)n(C)c1=O | -6% | -12%
CCCN1CCN(CCCNC(=O)CN2C(=O)c3cccnc3Oc3ccc(C)cc32)CC1 | -14% | i
CCc1ccc([C@H]2[C@@H]3C(=O)C[C@@H]4C(=O)NC(=O)[C@@H]4[C@@H]3CN2S(=O)(=O)c2ccc(C)cc2)cc1 | -4% | i

Next section:
Compound | VACV Venus inh | Vaccinia mCherry
Cn1nccc1C(=O)NC1CCCc2c1cnn2-c1ccc(C(C)(C)C)cc1 (centres undefined) | -26% | -5%
O=C(NNC(=S)Nc1ccccc1)c1cc(-c2cccnc2)nc2ccccc12 | -5% | i
Cc1c(C(=O)NCc2ccc3c(c2)OCO3)sc(=O)n1Cc1cccc(F)c1 | 4% | 22%
O=C(c1cnn(C(=O)c2ccccc2F)c1)c1ccccc1O | -4% | -22%
COc1ccc(Cn2c(C)c(C)c(C#N)c2NC(=O)Nc2ccccc2)cc1 | -5% | -10%
FC(F)c1nnc2ccc(Cl)nn12 | -16% | ?
O=C(Nc1cccc(C(=O)O)c1)/C(=C\c1ccco1)NC(=O)c1ccccc1Cl | 10% | -3%
CC(=O)OC1CCC2(C)C(=CCC3C2CCC2(C)C3CC3OC4(CCC(C)CN4)C(C)C32)C1 (centres undefined) | -6% | -11%
Cc1ccc(NC(=O)C2CCCN2C(=O)c2cccs2)c(C)c1 (centres undefined) | -3% | -5%
CC(=O)c1cnn(-c2cc(Oc3ccccc3C)ncn2)c1C | -8% | /

(cont.)
Compound | VACV Venus inh | Vaccinia mCherry
CCOC(=O)CC1CCCCN1Cc1cn(C)nc1-c1ccc2c(c1)OCCO2 (centres undefined) | -8% | i
Cc1ccc(OC(=O)CCN2C(=O)c3ccccc3C2=O)cc1C | 6% | 2%
CC(=O)Nc1ccc(Nc2nc(-c3ccccc3)nc3ccccc23)cc1 | ? | -33%
COc1ccc(Nc2nc(N3CCCC3)nc3ccccc23)c(OC)c1 | 11µM* | ?
COc1ccc(NC(=O)CCCN2C(=O)/C(=C\c3ccco3)SC2=S)cc1 | -30% | ?
Cc1cccc(C(=O)Nc2ccc(O)cc2)c1 | 21% | 32%[activator]
Cn1c(NCCc2ccncc2)nc2cc(-c3cccc(Cl)c3)sc2c1=O | -18% | i
Cc1ccc(-n2ncc3c(NCc4cccnc4)ncnc32)cc1C | -28% | ?
CC(=O)c1ccc(NC(=O)CSc2cn(CC(=O)N3CCCCC3)c3ccccc23)cc1 | -1% | -13%
O=C(N/N=C/c1cccnc1)c1ccc(Cl)c(Cl)c1 | -7% | -17%

Next section:
Compound | VACV Venus inh | Vaccinia mCherry
COC(=O)c1cccc(C23CC4(C2)[C@H](CN(Cc2ccc(C(F)(F)F)cc2)[C@@H]4c2ccccc2)C3c2ccc(C(F)(F)F)cc2)c1 (some centres undefined) | -25% | -11%
COc1ccc(CCC(C)NCCc2ccccc2)cc1 (centres undefined) | -12% | -7%
CCN(CC)S(=O)(=O)c1ccc(C(=O)NCC(c2cccs2)N2CCOCC2)cc1 (centres undefined) | -2% | -9%
Nc1ccc(S(=O)(=O)Nc2ccnn2-c2ccccc2)cc1 | -16%&-11%&-14%&-11% | -2%&-4%
Cc1ccc(-c2cc(C(=O)N/N=C\c3cnn(C)c3C)c3ccccc3n2)cc1C | -18% | i
CCN(CC)CCn1c2c(c(SCC(=O)Nc3nc(C)cs3)nc1=O)CCCC2 | -8% | -13%
O=C(NCC1CCCCC1)c1cc2ccccc2cc1O | -24% | ?
CC(C)c1ccc(NC(=O)CCNS(=O)(=O)c2ccc3c(c2)CCCC(=O)N3)cc1 | -8% | -11%
COc1cc(-c2cnc3c(NC=O)cc(-c4ccsc4)cn23)cc(OC)c1OC | ? | ?
CCN1/C(=C2\SC(=S)N(Cc3ccccc3)C2=O)Sc2ccccc21 | -11% | -12%

Other compounds.
Compound | VACV Venus inh | Vaccinia mCherry
O=C(CCC(=O)N1CCCC1)Nc1ccc([N+](=O)[O-])cc1 | -11% | i
Cc1ccc(-c2cc(C(=O)Nc3ccccn3)c3ccccc3n2)o1 | 10% | -6%
CCOC(=O)c1[nH]c(C)c(CN(CCc2ccccc2)C(=O)CCC(=O)O)c1C | 9% | 11%
O=C(O)c1cc(-c2ccc(/C=N/NC(=S)Nc3ccccc3)o2)ccc1Cl | -9% | ?
COc1cc(OC)c(OC)cc1/C=C(\C#N)C(=O)NCc1cccs1 | -2% | i
O=C(NCc1ccc2c(c1)OCO2)c1cc2ncc(Br)cn2n1 | -13% | /
CCOC(=O)C(CC1=CS(=O)(=O)c2ccc(Cl)cc21)(NC(C)=O)C(=O)OCC | -7% | -14%
FC(F)(F)c1ccccc1Cc1c(-c2cccc(Br)c2)nc2ccc(Br)cn12 | 7% | i
COCCn1c(SCC(=O)Nc2cccc(C)n2)nnc1-c1ccco1 | -7% | -2%
COc1ccc(CCNC(=O)CSc2nc3sc(C(=O)O)c(C)c3c(=O)[nH]2)cc1OC | -17% | -21%

Entries above containing a COOH group (5):
Compound | VACV Venus inh | Vaccinia mCherry
CCN(c1ccccc1C(=O)O)S(=O)(=O)c1cccc2nsnc12 | -20% | i
O=C(Nc1cccc(C(=O)O)c1)/C(=C\c1ccco1)NC(=O)c1ccccc1Cl | 10% | -3%
CCOC(=O)c1[nH]c(C)c(CN(CCc2ccccc2)C(=O)CCC(=O)O)c1C | 9% | 11%
O=C(O)c1cc(-c2ccc(/C=N/NC(=S)Nc3ccccc3)o2)ccc1Cl | -9% | ?
COc1ccc(CCNC(=O)CSc2nc3sc(C(=O)O)c(C)c3c(=O)[nH]2)cc1OC | -17% | -21%

Additional compounds follow.
Compound | VACV Venus inh | Vaccinia mCherry
CC(C)c1ccc(/C=C(\C#N)c2nc(-c3cc4ccccc4oc3=O)cs2)cc1 | 10% | -6%
CCOc1ccc(C(=O)NC(=S)Nc2ccccc2OC)cc1[N+](=O)[O-] | -6% | i
CCO[C@H]1OC(C(=O)Nc2ccccc2)=C[C@@H](C)[C@@H]1CCCO | -13% | -3%
COc1ccc2[nH]c(=O)c(CN(Cc3ccccc3)C(=S)NCC3CCCO3)cc2c1 (centres undefined) | -19% | -14%
CC1(C)C2CCC1(CS(=O)(=O)NCc1ccc(C(=O)O)cc1)C(=O)C2 (centres undefined) | -5% | /
C[C@@H]1CN([C@H](C)CO)C(=O)CCCn2cc(nn2)CO[C@H]1CN(C)C(=O)Nc1ccc(F)cc1 | -12% | -15%
CCNC(=O)NC1(C(=O)Nc2ccc3c(c2)OCCO3)CCCCC1 | -6% | -9%
CC(C)Cn1c(SCC(=O)NC2CC2)nc2ccc(Cl)cc2c1=O | -23% | -9%
CCOC(=O)C1=NN(c2ccccc2C)C2=NC(C)=C(C(=O)OC)C(c3cccc(OC)c3)N12 (centres undefined) | -19% | -19%
CC1(C)C(=O)OC(c2ccccc2)C2(CCCC2)C1=O (centres undefined) | -5% | -14%

The list continues:
Compound | VACV Venus inh | Vaccinia mCherry
O=C(O)C1CC(=O)N(CCOc2ccccc2)C1 (centres undefined) | -16% | -10%[1.46 µM]
COc1ccc(NC(=O)CCN2C(=O)c3ccccc3S2(=O)=O)c(OC)c1 | -4% | -3%
CC(=O)Nc1cccc(NC(=O)C(=O)NCC(c2ccco2)N2CCc3ccccc32)c1 (centres undefined) | -25% | ?
Cc1ccc(Cn2c(CN3CCN(c4cccc(Cl)c4)CC3)nc3c2c(=O)n(C)c(=O)n3C)cc1 | -12% | -10%
COc1ccc(CN2CCCN(C)CC2)c(OC)c1C | -20% | i
COc1ccc(Cc2noc(CN(C)CC(O)c3ccccc3)n2)cc1OC (centres undefined) | 0% | i
CCCOC(=O)c1ccc(Oc2coc3c(CN(CC)CC)c(O)ccc3c2=O)cc1 | -1% | -13%
C=CCn1c(=NC(=O)CC)n(C)c2ccccc21 | -3% | -13%
COC(=O)CN(c1ccc(C(C)C)cc1)S(=O)(=O)c1c(C)[nH]c(=O)[nH]c1=O | -2% | 7%
Cc1c(/C=N/Nc2nc3ccccc3[nH]2)c2ccccc2n1C | -28% | i

Following part
Compound | VACV Venus inh | Vaccinia mCherry
CCc1ccc(CN2CCCC(CNS(=O)(=O)c3ccc(OC)cc3)C2)cc1 (centres undefined) | -16% | i
COC(=O)C1=C(C)N(Cc2ccccc2)C(=NCc2ccc(OC)cc2)N[C@H]1c1cccc(F)c1 | ? | ?
Cc1coc2cc3oc(=O)c(CC(=O)NCCc4ccccc4)c(C)c3cc12 | -10% | -10%
N#Cc1ccc(C(=O)N2CCN(S(=O)(=O)c3ccc(Br)s3)CC2)cc1 | -17% | -10%
COc1ccc(CNc2ncnc3c2[nH]c2cc(OC)c(OC)cc23)cc1 | -17% | -12%
O=P(O)(Cc1ccccc1)Cc1ccccc1 | -5% | i
C#CCCc1ccccc1/C=[N+](/C)[O-] | -27% | ?
CCOC(=O)C1=C(C)NC(C)=C(C(=O)OCC)C1C(=O)OCC(=O)NCc1ccccc1 | -18% | -11%
COc1cc(/C=C/c2ccnc3ccccc23)ccc1N(C)C | 13% | -23%
S=C(NCc1ccccn1)Nc1ccc(Cl)cc1Cl | -9% | -16%

Later entries:
Compound | VACV Venus inh | Vaccinia mCherry
CCn1cc(C2C(C(=O)Nc3ccc(Br)cn3)=C(C)NC3=C2C(=O)CCC3)c(C)n1 (centres undefined) | -1% | i
O=C(CN1CCN(c2ccc(F)cc2)CC1)N(C1CCCC1)C1CCS(=O)(=O)C1 (centres undefined) | -5% | -12%
COc1ccc(CNc2nc(S(=O)(=O)c3ccccc3)c(Cl)s2)cc1OC | -29% | ?
CCN1CCN(c2nc(-c3ccccc3)nc3ccccc23)CC1 | -15% | -23%
COc1ccc(CNc2nc3nc4c(c(=O)n3[nH]2)CCC4)cc1 | 2% | /
Cc1csc(SC(C)C(=O)NC2CCCCC2C)n1 (centres undefined) | 2% | -14%
CNc1ccc(Br)cc(C(=O)/C=C/c2ccc3c(c2)OCO3)c1=O | -8% | /
O=C(NCc1cccs1)c1cc(-c2ccccc2)on1 | -12% | i
Cc1cccc(C)c1NC(=O)CN(C)S(=O)(=O)c1ccc2[nH]c3c(c2c1)CCCC3 | -22% | -18%
Cc1cccc(N(C)C(=O)c2cc(S(=O)(=O)N3CCc4ccccc43)cn2C)c1 | -3% | ?
O=C1CCC(=O)N1c1ccc(-c2nc3ccccc3s2)cc1 | -17% | i
